# Sfp PPTase inh: Sfp phosphopantetheinyl transferase inhibition | Biochemical Sfp PPTase activity, qHTS | 310,000 compounds, 3.5% hits | AID 1490 | Potency, µM, inactives show max response, negative = inhibition, hits mostly inhibitors | Q9F4F7; active = well fitted inhibition curve with a large enough effect; inconclusive = small, poorly fitted or top-dose-only effect, or another doubt; inactive = no such curve, though single readings can be large or run the other way;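 also: the enzyme is Sfp with the accession as filed and its product quenches rhodamine fluorescence; potency is read from the fitted curve at half-maximal effect; 0% = enzyme reaction without inhibitor and -100% = no enzyme wells; top concentration of the series not given in the record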
#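 Compounds were incubated with enzyme (final 15 nM) for 15 min at room temperature before substrate addition started the reaction. Fluorescence at 525 nm excitation, 598 nm emission was recorded immediately and after 30 minutes.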
# ClpP mod: qHTS Assay for Activators of ClpP | Potency, µM (series often up to 57.5 µM), inactives show at the highest dose activity change, negative = active | 340,000 compounds, 1.9% hits | purified B. subtilis ClpP, FRET peptide cleavage, 20 min; active = well fitted falling curve with a large enough effect; inconclusive = small, poorly fitted or top-dose-only effect; inactive = no such curve, though single readings can be large or run the other way; also: potency is read from the fitted curve at half-maximal effect; the source files actives as falling curves though it sought activators and does not explain the sign; nearly all actives have a fitted effect of over 65% in size; many hits overshoot -100%
# Target sequence (P80244 whole entry, looked up): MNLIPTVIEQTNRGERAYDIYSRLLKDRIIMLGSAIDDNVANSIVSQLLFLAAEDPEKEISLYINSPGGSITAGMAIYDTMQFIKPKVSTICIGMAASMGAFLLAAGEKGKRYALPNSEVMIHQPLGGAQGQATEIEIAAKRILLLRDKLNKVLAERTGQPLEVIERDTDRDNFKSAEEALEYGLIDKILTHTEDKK
#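 Buffer: 100 mM Tris/HCl pH8, 100 mM KCl, 0.05% low protease BSA, 2.5% glycerol, 0.01% Tween-20. ClpP 10 microg/mL final; 20 min RT; delta FRET normalized to ADEP and DMSO controls.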
# gsp agonist: activates gsp, the McCune-Albright syndrome mutation. Potency, µM (doses to about 76.9 µM), inactives show top-dose activation (cAMP increase), hits mostly activators. AID 624287. 340,000 compounds, 0.13% hits. gsp mutant cells, cAMP HTRF, 30 min; control for the full effect not named in the record; active = well fitted activation curve with a large enough effect; inconclusive = small, poorly fitted or top-dose-only effect, or another doubt; inactive = no such curve, though single readings can be large or run the other way; cell line not stated here;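 also: phosphodiesterase inhibitor Ro 20-1724 added with compounds to block cAMP breakdown; potency is read from the fitted curve at half-maximal effect; nearly all actives have a fitted effect of over 60% in size; about a fifth of the inactives were tested at one dose only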
#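 Cells stably selected in G418 were plated at 2000/well, grown 16-24 hr, then given compounds in DMSO with the PDE inhibitor […] (300 uM solution added) for 30 min at 37C; cAMP was read by HTRF.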
# gsp antagonist: antagonizes gsp, the McCune-Albright syndrome mutation | gsp-mutant cells, cAMP HTRF, 30 min; control for the full effect not named in the record | Potency, µM (doses to about 76.9 µM), inactives show top-dose activity change, negative = inhibition, hits mostly inhibitors | 340,000 compounds, 0.4% hits; active = falling curve of any shape with a large fitted effect; inconclusive = falling curve, mostly with a smaller effect; inactive = flat or rising curve; cell line not stated here;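 also: intracellular cAMP measured with PDE inhibitor Ro 20-1724 present during compound exposure; potency is read from the fitted curve at half-maximal effect; % is scaled to controls: 0 for no effect and ±100 for the full control effect; nearly all actives have a fitted effect of over 65% in size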
#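 Cells in G418 medium, seeded 16-24 h, 37C; buffer exchange to DPBS + 1 mM CaCl2, 0.5 mM MgCl2, 0.05% BSA; cpds in DMSO + […] (300 uM stock), 30 min 37C; HTRF cAMP detection.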
# TRPV1 PAM: human TRPV1 potentiation. 320,000 compounds, 0.02% hits. potentiation, % at 8.33 µM. TRPV1-expressing cells, Fluo-8 calcium influx, capsaicin EC20 potentiation; host cell line not named in the record; control for the full effect not named in the record. Q8NER1; active means potentiation above 80%; inconclusive means 30% to 80%; inactive means below 30%; also: 0% is about no effect
# Target sequence (Q8NER1 whole entry, looked up): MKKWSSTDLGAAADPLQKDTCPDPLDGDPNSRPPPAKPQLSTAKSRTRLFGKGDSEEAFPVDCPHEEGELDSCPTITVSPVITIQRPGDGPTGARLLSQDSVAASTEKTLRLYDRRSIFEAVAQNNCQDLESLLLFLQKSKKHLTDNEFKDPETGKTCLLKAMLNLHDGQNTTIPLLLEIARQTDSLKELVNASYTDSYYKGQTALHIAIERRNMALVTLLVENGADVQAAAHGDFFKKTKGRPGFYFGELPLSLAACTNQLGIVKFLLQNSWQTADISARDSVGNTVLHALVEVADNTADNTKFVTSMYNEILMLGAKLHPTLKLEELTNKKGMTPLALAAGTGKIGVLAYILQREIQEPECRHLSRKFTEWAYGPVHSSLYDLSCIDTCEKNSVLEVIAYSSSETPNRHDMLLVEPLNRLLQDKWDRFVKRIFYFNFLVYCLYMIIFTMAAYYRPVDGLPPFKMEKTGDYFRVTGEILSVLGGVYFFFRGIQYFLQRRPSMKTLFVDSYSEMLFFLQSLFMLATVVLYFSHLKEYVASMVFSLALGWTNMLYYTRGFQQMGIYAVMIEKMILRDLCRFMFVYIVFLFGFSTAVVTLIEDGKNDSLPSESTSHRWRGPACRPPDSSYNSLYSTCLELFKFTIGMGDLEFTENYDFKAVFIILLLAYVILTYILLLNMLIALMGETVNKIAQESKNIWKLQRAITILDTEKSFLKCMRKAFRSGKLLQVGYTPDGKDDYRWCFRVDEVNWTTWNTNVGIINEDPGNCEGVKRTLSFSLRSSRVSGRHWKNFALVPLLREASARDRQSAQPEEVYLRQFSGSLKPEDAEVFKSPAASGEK
#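 TRPV1-expressing cells were cultured overnight at 35.5C and loaded with Fluo-8 calcium dye for 40 to 90 min at room temperature. After a 10 s baseline, compound was added and calcium influx was read kinetically for 3 min (ex 480/em 520 nm).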
# TRPML1 inh: human mucolipin-1 channel inhibition. Q9GZU1. TRPML1-inducible cells, Ca2+ dye fluorescence, FDSS; stronger effect = lower value; inhibition of EC80 agonist-evoked calcium signal. activity change, negative = inhibition, % (test concentration not listed). 390,000 compounds, 0.02% hits; in the data active means activity change below about -50%; inconclusive means about -30% to -50%; inactive means above about -30%;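 also: stimulus is agonist 54-4 at its EC80 concentration; % is scaled to controls: 0 for no effect and ±100 for the full control effect; compound concentration not given in the record; the text of the record puts the active cut at -80%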
#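 Calcium fluorescence in TRPML1-DL cells induced overnight with Tet: a 110 s read after compound pin addition, then a 110 s antagonist read after challenge with 54-4 at 4 uM final (EC80).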
# Menin-MLL FL inh: inhibitors of human menin-MLL interaction, wild-type MLL peptide; Fluorescence polarization, fluorescein-MLL peptide displacement from menin; FP activity change, % at 61.4 µM; 290,000 tested, under 10 active; AID 1766; inconclusive = falling polarisation curve, or a change in total fluorescence; inactive = total fluorescence flat and polarisation flat or rising; no compound was filed as active; the % refers to the polarisation; negative = inhibition;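 also: % of control where 0% means no effect; inhibitors lower the polarisation; unlabelled MLL peptide was the positive control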
# The depositor's hits bear a star; ? = inconclusive; . = no result given; & = joins results of further samples; [ ] = remark or other dose.
nr | Structure | TRPML1 inh | TRPV1 PAM | gsp antagonist | ClpP mod | Sfp PPTase inh | Menin-MLL FL inh | gsp agonist
1 | Cc1nn(CCOc2cccc(Br)c2)c(C)c1[N+](=O)[O-] | -24 | -17 | 4% | . | -14% | 4.9 | 18%[15.4 µM]
2 | COc1ccc(-n2c(SCC(=O)Nc3ccccc3)nc3c(c2=O)SCC3)cc1 | -3 | 16 | -6% | 0.8% | 15% | 1.1 | -26%
3 | CCOc1cc(-c2nc3ccccn3c2NCC2CCCO2)ccc1O (stereo not given) | -18 | 19 | -15% | ? | -4% | 3.3 | ?
4 | C=C1CCC(OC(C)=O)C2(C)CCC3C(C)C(=O)OC3C12O (stereo not given) | 15 | -20 | 9% | . | 13% | 6.9 | 12%
5 | CC(=O)NC(=S)Nc1sc2c(c1C(N)=O)CCC(C)C2 (stereo not given) | -2 | 3 | -2% | . | -12% | -1.5 | 5%[15.4 µM]
6 | CC(=O)Oc1ccc(N(C(C)=O)S(=O)(=O)c2cccs2)c2ccccc12 | 12 | -3 | -16% | -1.4% | 7% | 4.0 | -47%[inhibitor]
7 | CC(=O)Nc1ccc(S(=O)(=O)C(C#N)c2nc3ccccc3nc2NCCN2CCOCC2)cc1 (stereo not given) | 33 | 6 | -5% | -0.2% | -17% | 5.1 | 5%[15.4 µM]
8 | CCCNC(=O)c1ccc(N2CCC3(CC2)CC(c2cccc(Br)c2)=NO3)c([N+](=O)[O-])c1 | 11 | 15 | -17% | 1.1% | -1% | -3.1 | 21%
9 | COc1ccc(NC2=NC(=S)N(c3ccc(C)cc3)C23CCCCC3)cc1 | -19 | . | 3% | -0.7% | 26% | 1.2 | 17%
10 | COc1ccc(OC(=O)Nc2ccccc2)cc1 | -9 | -5 | 11% | -0.6% | 12% | -1.1 | -1%
11 | S=c1nc(SCc2ccccc2)[nH]c2ccccc12 | 13 | 21 | -3% | . | 15% | -2.0 | 52%[15.4 µM]
12 | C1CCC(c2nn3c(-c4n[nH]c5c4CCC5)nnc3s2)CC1 | 41 | 0 | -1% | -1.2% | -5% | 5.9 | ?
13 | CCN(CC)C(=O)c1sc(N)c(C(=O)OC(C)C)c1C | 2 | 15 | -6% | -4.7% | -2% | -0.9 | 5%
14 | CCOC(=O)CSc1ccc(C(=O)N2CCN(C)CC2)cc1[N+](=O)[O-] | -22 | 4 | 7% | . | -8% | 2.7 | 0%[15.4 µM]
15 | CC(C)Oc1ccc(C(=O)N2CCCC2C(=O)O)cc1 (stereo not given) | -3 | 8 | 8% | -0.4% | 6% | -0.9 | -40%[inhibitor]
16 | CCOc1ccc(-c2[nH]ncc2-c2ccc(OC)c(OC)c2)c(O)c1 | -7 | 1 | 5% | ? | 1% | -0.1 | -4%
17 | CCOC(=O)N1CCN(CC(=O)c2ccc(O)c(C)c2O)CC1 | -4 | 1 | -2% | -4.7% | 4% | -9.0 | 15%
18 | COc1ccc(C(=O)Nc2nnc(S(=O)(=O)N3CCC(C)CC3)s2)cc1OC | 0&9 | ? | -10% | -16%&-12% | 7% | -1.3 | ?
19 | CC(C)(C)c1cc(NC(=O)CCSc2nnc3ccccn23)cc(C(C)(C)C)c1 | 5 | . | -1% | -21% | . | . | -3%
20 | COc1cccc(-c2cnc(OC(C)(C)C)nc2OC(C)(C)C)c1 | 2 | -8 | 0% | -0.2% | 2% | 0.1 | 3%
21 | N/C(=N\OC(=O)N1CCOCC1)c1ccccc1 | -5 | 3 | 7% | 0.2% | 15% | 0.3 | -34%[inhibitor]
22 | COC(=O)C(C(=O)NCC1CCCO1)C1CCCCCC1 (stereo not given) | 19 | -29 | 5% | -0.6% | -6% | 2.4 | -67%[inhibitor]
23 | COc1cccc(CNC(=O)c2nnn(-c3ccc(OC(F)(F)F)cc3)c2N)c1 | -5 | -11 | 2% | 0.5% | 9% | -1.5 | 26%
24 | COc1ccc(N2CCN(C(=O)c3ccc(C)c(NC(=O)c4ccco4)c3)CC2)cc1 | -4 | -8 | 0% | 1.1% | 16% | . | -6%
25 | Cc1ccc(NC(=O)c2cc(N3C(=O)C4CCCCC4C3=O)ccc2N2CCOCC2)cc1 (stereo not given) | -29 | 7 | -24% | -0.1% | 5% | -2.0 | -17%
26 | COc1ccccc1OCC(=O)NCCSCc1cccc(Cl)c1 | -10 | 29 | -1% | -2.7% | 4% | . | -43%[inhibitor]
27 | Cc1ccc2cc(CN(Cc3cccs3)C(=O)c3ccco3)c3nnnn3c2c1C | . | -2 | . | . | -2% | 4.6 | .
28 | CCOC(=O)C1(C(=O)O)NC(=O)CC1c1ccccc1 (stereo not given) | -28 | -14 | 9% | -2.0% | -1% | 5.3 | -1%
29 | COc1ccc(N2CCN(C(=S)NCCc3ccccc3)CC2)cc1 | -3 | . | 10% | 3.3% | . | . | -15%
30 | COc1ccc(NC(=O)COC(=O)c2n[nH]c3ccccc23)c(OC)c1 | 3 | 9 | -29% | 0.7% | . | . | -23%

# Sorted by value in TRPML1 inh (highest first): some entries from above.
No. | Compound | TRPML1 inh
30 | COc1ccc(NC(=O)COC(=O)c2n[nH]c3ccccc23)c(OC)c1 | 3
17 | CCOC(=O)N1CCN(CC(=O)c2ccc(O)c(C)c2O)CC1 | -4
26 | COc1ccccc1OCC(=O)NCCSCc1cccc(Cl)c1 | -10

# A draw from above in order of SMILES length, smallest number first.
nr | Structure | TRPML1 inh | TRPV1 PAM | gsp antagonist | ClpP mod | Sfp PPTase inh | Menin-MLL FL inh | gsp agonist
5 | CC(=O)NC(=S)Nc1sc2c(c1C(N)=O)CCC(C)C2 (stereo not given) | -2 | 3 | -2% | . | -12% | -1.5 | 5%[15.4 µM]
30 | COc1ccc(NC(=O)COC(=O)c2n[nH]c3ccccc23)c(OC)c1 | 3 | 9 | -29% | 0.7% | . | . | -23%
18 | COc1ccc(C(=O)Nc2nnc(S(=O)(=O)N3CCC(C)CC3)s2)cc1OC | 0&9 | ? | -10% | -16%&-12% | 7% | -1.3 | ?

# Further results follow:
nr | Structure | TRPML1 inh | TRPV1 PAM | gsp antagonist | ClpP mod | Sfp PPTase inh | Menin-MLL FL inh | gsp agonist
31 | COc1ccc(NC(=O)CN(C)C(=O)c2cn(-c3ccccc3)nc2-c2ccc(OC)cc2)cc1 | -6 | -5 | ? | -16% | . | . | 9%
32 | C=CC[C@@H](CC(=O)N[C@H](CO)Cc1ccccc1)C(=O)N[C@H](COC(=O)[C@@H](CC=C)CC(=O)OC(C)(C)C)Cc1ccccc1 | 33 | . | -8% | 1.7% | . | . | .
33 | COc1ccc(-c2cccc(C3CC=CC4C3C(=O)N(Cc3ccccc3)C4c3ccc(C(F)(F)F)cc3)c2)cc1 (stereo not given) | 0&23 | -2 | -3% | -3.4% | 15%&-14% | 0.7&1.9 | .
34 | O=C(Cc1cn2ccsc2n1)OCc1nc2ccccc2s1 | -3 | 0 | 4% | -1.4% | -12% | 3.0 | 2%
35 | CC(C)C(=O)Nc1c(-c2cccc(Cl)c2)c(=O)c2ccccc2n1C | 2 | ? | -1% | ? | 4% | -8.0 | 0%
36 | COc1ccc(C2CCCN2C(=S)Nc2cccc(C)c2)cc1OC (stereo not given) | 15 | -7 | -6% | . | 3% | -1.3 | 1%
37 | O=c1c(CN2CCN(Cc3ccccc3F)C(CCO)C2)coc2ccccc12 (stereo not given) | 4 | 18 | 10% | 1.3% | 9% | -1.4 | -4%[15.4 µM]
38 | CS(=O)(=O)N(CC(=O)NCCSCc1ccco1)c1ccc2c(c1)OCO2 | 26 | 3 | 0% | . | 14% | 4.9 | -70%[inhibitor]
39 | COc1ccc(-c2nn(-c3ccccc3)cc2CNC(=O)c2cccc([N+](=O)[O-])c2)cc1 | -15 | -18 | -14% | . | -7% | -3.4 | 7%[15.4 µM]
40 | Cc1cc(NC(=O)Nc2ccc(Cl)cc2)n(C)n1 | 16 | -17 | 19% | 0.1% | -5% | 2.2 | -12%
41 | CC1CCCC(C)N1C(=O)CSCc1ccc(Cl)cc1 (stereo not given) | 7 | -11 | 35µM* | -2.8% | 13% | 1.3 | -43%[inhibitor]
42 | CC(=O)Nc1ccc(S(=O)(=O)N2CCc3cc4c(cc3C2C)OCCCO4)cc1 (stereo not given) | -5 | 9 | -3% | -6.3% | 6% | -0.1 | ?
43 | COCCn1c(=O)[nH]c2cc(C(=O)N3CCN(c4ccccc4)CC3)ccc2c1=O | 22&38 | 3 | -5% | 0.5%&-4.1% | -2% | -7.5 | -2%[15.4 µM]
44 | N=c1c2c(-c3ccccc3)c(-c3ccccc3)oc2ncn1CCCN1CCOCC1 | 17 | -5 | -4% | ? | 4% | -0.2 | -15%
45 | CC(=O)Nc1ccc(C23CC4CC(CC(C4)C2)C3)cc1 | . | -17 | -15% | -0.5% | -2% | -1.6 | -2%
46 | O=C(C1CC(=O)N(c2ccc3c(c2)OCCO3)C1)N1CCN(S(=O)(=O)c2ccc(F)cc2)CC1 (stereo not given) | 1 | . | -12% | 2.8% | . | . | 2%
47 | O=c1[nH]c(/C=C\c2ccc(O)c(Cl)c2)nc(O)c1[N+](=O)[O-] | 7 | 0 | -6% | 1.9% | -1% | 3.2 | -24%
48 | COc1ccc(-n2nc(C(=O)NCC(=O)N3CCN(Cc4ccccc4)CC3)c3ccccc3c2=O)cc1 | 54 | -18 | -14% | -5.6% | -6% | 7.1 | 11%
49 | CN(C)c1nc(-c2ccccc2)c2cnn(Cc3ccccc3)c2n1 | 8 | . | -4% | 28µM* | ? | 6.9 | 0%
50 | COCCn1c(SCC(=O)N2CCCc3ccccc32)nc2c(c1=O)SC(C)C2 (stereo not given) | 6 | 26 | -10% | -0.5% | -13% | 1.8 | -36%[inhibitor]

# Laid out differently: results already given
[31] COc1ccc(NC(=O)CN(C)C(=O)c2cn(-c3ccccc3)nc2-c2ccc(OC)cc2)cc1
[32] C=CC[C@@H](CC(=O)N[C@H](CO)Cc1ccccc1)C(=O)N[C@H](COC(=O)[C@@H](CC=C)CC(=O)OC(C)(C)C)Cc1ccccc1

Screen / compound no.	31	32
TRPML1 inh	-6	33
TRPV1 PAM	-5	.
gsp antagonist	?	-8%
ClpP mod	-16%	1.7%
Sfp PPTase inh	.	.
Menin-MLL FL inh	.	.
gsp agonist	9%	.
